# Vaccinia pol inh = inhibitors of vaccinia virus processive DNA synthesis (E9 polymerase); in vitro processive DNA synthesis, absorbance read-out; hits give low values; some inactives read as strong as hits; normalized absorbance, % (concentration not given with the values); 0.94% of 46,000 active; AID 493162;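 active = replicate mean up to 90% and picked by the depositor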;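 also: 100% = median of the test wells of a plate; 100 nL library stock went into each well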
# * = called active by the depositor. The list is partial; count on the stated rates, not on these rows.
SMILES,Vaccinia pol inh
CN(C)c1ccc(CNC(=O)C(Cc2ccccc2)n2cccc2)cc1 (stereo unspecified),98.6
COc1ccc2c(CNCCc3ccccc3Cl)c(C(=O)O)[nH]c2c1,104.5
O=C(c1cccc(F)c1)N1CCN(c2ccc3nncn3n2)CC1,97.1
CCCNC(C)C(=O)Nc1ccccc1C (stereo unspecified),100.3
O=S(=O)(c1ccc(Br)cc1)c1ccc(Br)cc1,103.0
O=C(O)c1ccc(O)c(SCN2CCCCC2)c1,95.5
Cc1ccc(C)c2[nH]c(=O)c(CCNS(C)(=O)=O)cc12,100.9
COc1ccccc1/C=C/C(=O)Nc1nc2ccccc2s1,88.2
CSc1ccc(Cl)c(C(=O)OCC(=O)c2ccccc2)c1,88.3
CC1(C)N=C(N)N=C(N)N1c1ccccc1,100.0
O=C(Nc1ccc2c(c1)S(=O)(=O)c1cc(NC(=O)C3CCCCC3)ccc1-2)C1CCCCC1,98.6
O=C(O)C1c2ccccc2-c2ccccc21,85.5
Cc1nn(CC(O)Cn2c3c(c4ccccc42)CCN(C)C3=O)c(C)c1Br (stereo unspecified),99.7
O=C(O)Cc1c(C(=O)O)[nH]c2ccccc12,90.1
CC(=O)NCCc1nc2ccccc2n1CCc1ccccc1,92.9
COc1ccc(COCC(O)CN2C(C)CCCC2C)cc1OC (stereo unspecified),100.3
COc1cccc2c1c(NC(=O)CCC(=O)O)nn2C,102.0
CC(C)(C)c1cc(C(=O)Oc2cccc(C(F)(F)F)c2)n(Cc2ccccc2)n1,99.0
CC(C)CCOc1ccc(CN)cc1,112.7
CC1(C)CC(=O)c2sc(Nc3nc4c(F)cccc4s3)nc2C1,87.2
Cc1cc(C(=O)OC(C)C(=O)Nc2ccc(Cl)cc2Cl)c(C)o1 (stereo unspecified),88.3
Brc1ccc(-c2cn3ccccc3n2)cc1,103.7
O=C1Nc2cc(C(F)(F)F)ccc2N2CCCCC12 (stereo unspecified),88.0
COC(=O)c1cc2c(s1)CN(C1CCCc3ccccc31)C2 (stereo unspecified),99.0
O=c1[nH]c2ccccc2nc1Cc1ccccc1,98.7

# Further results.
SMILES,Vaccinia pol inh
N#Cc1cnc(Sc2nnc(-c3ccncc3)n2-c2ccccc2)nc1N,84.4
O=C(CCC1CCCC1)Nc1ccc2nc3n(c(=O)c2c1)CCCCC3,100.0
CCOc1ccc(NC(=O)c2sc3nc[nH]c(=O)c3c2C)cc1,101.0
COc1ccc(C2=NCC(C)(C)CO2)cc1OC,98.7
Cn1ccc(NC(=O)NC(=O)c2c(F)cccc2F)n1,97.8
CN1CCSc2ccc(C(=O)NCCCN3CCCCCC3)cc21,97.9
Cc1ccc(C(=O)OCC(=O)NC2CC2)s1,79.5
N#Cc1ccc(NC(=O)COC(=O)c2ccc(F)cc2)cc1,107.0
O=C(CS(=O)(=O)c1cccc2nsnc12)N1CC(=O)N(CCc2ccccc2)C(=O)C1,104.6
O=C1CCCN1c1ccc(OC(F)(F)F)cc1,104.6
Cc1ccc(C(C)C)c(OCC(=O)Nn2c(=O)[nH]c3ccccc3c2=O)c1,100.6
Cc1ccccc1NC(=O)COC(=O)CCc1ccccc1,106.6
O=c1oc(-c2ccccc2)nc2c1oc1ccc(Cl)cc12,100.0
Nc1cc(=O)[nH]c(=O)n1Cc1ccccc1,99.8
Cc1ccc(S(=O)(=O)N(C)Cc2ccccc2)cc1C(=O)O,119.4
O=C1CC(c2ccccc2)=Nc2ncccc2N1,103.6
O=C(Nc1nccs1)c1c(O)c2ccccc2[nH]c1=O,99.3
COc1cccc(CNC(C)c2ccccc2)c1OCc1ccccc1F (stereo unspecified),99.6
FC(F)(F)COc1ccc(OCC(F)(F)F)c(-c2ncn[nH]2)c1,108.5
CCOP(=O)(c1ccccc1)c1nc(-c2ccc(Cl)cc2)oc1NC (stereo unspecified),93.5
O=C(Nn1nnnc1Nc1ccccc1)C12CC3CC(CC(C3)C1)C2,93.9
O/N=C1/CCCc2nn(-c3ccccc3)nc21,97.5
CC(C)(C)c1ccc(Oc2ccc(NC(=O)Nc3cccs3)cn2)cc1,101.4
Cc1cc(C)c2nc(NC3=NC(c4ccccc4)CC(=O)N3)nc(C)c2c1 (stereo unspecified),97.6
O=C(O)CCCC(=O)N1CCN(C2c3ccccc3-c3ccccc32)CC1,85.8

# Next section:
SMILES,Vaccinia pol inh
CCc1ccc(NC(=O)c2ccccc2Br)cc1,96.9
CC1CCCC(NC(=O)COc2ncnc3ccccc23)C1C (stereo unspecified),99.3
CCCOc1ccc(/C(=N\O)C(C)(C)NO)cc1,94.9
Cc1ccc2cc3c(nc2c1)-c1ccccc1C3=NC1CCCCC1,100.6
COc1cc(C)nc(N(CCO)CCO)n1,91.7
O=c1c(=O)n2c(nn1CN1CCOCC1)sc1ccccc12,92.3
Cc1n[nH]c(C)c1Sc1ccccc1NC(=O)c1ccc(F)cc1,104.2
CCOc1ccccc1NC(=O)CSc1ccccc1Cl,103.6
O=C1CC(c2cccc(O)c2)Nc2ccc3ccccc3c21 (stereo unspecified),61.9*
Oc1[nH]c(=S)sc1C=Nc1ccccc1,95.4
Cc1ccc2c(c1)c1c3n2CCN(CC(O)CN2CCCC2)C3CCC1 (stereo unspecified),88.9
Cn1c(=NC(=O)c2cc(=O)c3ccccc3o2)sc2cc(Br)ccc21,100.7
O=C(CN1C(=O)CSCC1=O)Nc1ccccc1,100.6
O=C(Cc1ccc(Cl)cc1)NC1=NCCS1,104.5
O=C(CSc1ncnc2sc(-c3ccccc3)cc12)c1ccc2c(c1)OCCO2,100.1
COc1ccccc1OCCNC(=O)c1ccc2c3c(cccc13)CC2,100.7
CCN(C(=O)CSc1ccccn1)C1CCCCC1,102.0
O=C(O)C12CCCC(Br)(CCC1)C2,98.5
NC1=[N+](c2ccccc2)Cc2ccccc21,103.2
CC(C)NC(=O)C1CCC(=O)N1Cc1ccccc1Cl (stereo unspecified),111.0
N#CC1=C(N)N(c2ccccc2)NC1(C(F)(F)F)C(F)(F)F,103.0
CSc1nnc(NC(=O)C2CCCCC2)s1,100.4
CCCSC1=C(C#N)C(c2ccco2)C(C(=O)Nc2ccccc2OC)=C(C)N1 (stereo unspecified),88.9
O=C(/C=C/c1ccc(Br)o1)Nc1nccs1,101.3
Cc1ccc(C(=O)CC(c2ccccc2)C(C#N)C#N)cc1 (stereo unspecified),98.5

# Some of the entries above, set out differently.
Structure	Vaccinia pol inh
CC1CCCC(NC(=O)COc2ncnc3ccccc23)C1C (stereo unspecified)	99.3
CCCOc1ccc(/C(=N\O)C(C)(C)NO)cc1	94.9
Cc1ccc2cc3c(nc2c1)-c1ccccc1C3=NC1CCCCC1	100.6
COc1cc(C)nc(N(CCO)CCO)n1	91.7
O=c1c(=O)n2c(nn1CN1CCOCC1)sc1ccccc12	92.3
Cc1n[nH]c(C)c1Sc1ccccc1NC(=O)c1ccc(F)cc1	104.2
CCOc1ccccc1NC(=O)CSc1ccccc1Cl	103.6
O=C1CC(c2cccc(O)c2)Nc2ccc3ccccc3c21 (stereo unspecified)	61.9*
Oc1[nH]c(=S)sc1C=Nc1ccccc1	95.4
Cc1ccc2c(c1)c1c3n2CCN(CC(O)CN2CCCC2)C3CCC1 (stereo unspecified)	88.9

# Next part
SMILES,Vaccinia pol inh
c1ccc2c(c1)NC(c1ccc3c(c1)OCO3)S2 (stereo unspecified),92.0
CC(NC(=O)c1ccccc1)c1nc2ccccc2[nH]1 (stereo unspecified),99.6
COc1ccc2[nH]c(-c3ccccc3)cc2c1,87.7
Cc1cc(C)c(C#N)c(SCC(=O)NC2CCCCC2)n1,85.8
Cc1nccn1C(C)CC(=O)O (stereo unspecified),98.2
CCCCn1c(NN)nc2sc3c(c2c1=O)CCCC3,100.2
CC(C)(C)NC(=O)Cn1nnc(-c2ccc(S(C)(=O)=O)cc2)n1,99.9
N#Cc1c(-c2ccccc2)cc(-c2ccccc2)c(C#N)c1N,99.2
O=C(O)CCCC(=O)Nc1cccc2cccnc12,100.0
O=C(CCCCl)Nc1ccccc1Cl,105.4
Cn1c(=N)n(CCOc2ccccc2Cl)c2ccccc21,98.5
CC(C)c1ccc(C=C2C(=O)NC(=O)NC2=O)cc1,99.5
Cc1ccc(C(=O)NCC(=O)OCc2ccc(Cl)c(Cl)c2)cc1,103.8
COC(=O)c1cnn(-c2ccccc2)c1C=Nc1ccc(C)cc1,97.3
O=C(CSc1ccc(Br)cc1)NC1CCCC1,98.8
CCCOC(=O)CSc1nc(C)cc(C)c1C#N,93.7
O=c1ccccn1Cc1ccccc1F,102.1
Cc1oc(=O)c(NC(=O)c2ccccc2)cc1C(=O)c1ccccc1,99.0
Cc1cc(C)nc(OC(=O)c2ccc(Cl)cc2Cl)n1,88.1
CCOC(=O)c1ccc(NC(=O)c2cc3c(s2)CCC3)cc1,105.7
CCOCC(=O)Nc1cc(Cl)c(NC(=O)COCC)c(Cl)c1,108.3
CCOC(=O)C1=C(S)N(C#N)C(=O)C(C#N)C12CCNCC2 (stereo unspecified),81.4
CCOC(=O)N1CCN(C(=O)C(NC(=O)c2ccc(C34CC5CC(CC(C5)C3)C4)cc2)C(C)C)CC1 (stereo unspecified),102.3
C/C=C\C(=O)NCc1ccc2[nH]c(C)cc2c1,100.2
O=C(C1=COCCO1)N1CCCc2ccccc21,94.3

# More results follow.
SMILES,Vaccinia pol inh
CC(=O)Nc1sc2c(c1C(c1ccccn1)N1CCN(C)CC1)CCCC2 (stereo unspecified),91.5
Cc1ccc(N(C(=O)c2ccccc2C)S(=O)(=O)c2ccc(Cl)cc2)cc1,100.2
Cc1cc(C)c2c(=O)[nH]c(SCC(=O)N(C)C)nc2n1,103.0
CCc1c(C)c2cc3c(C)coc3cc2oc1=O,98.8
COc1ccc(/C=C(\C#N)S(=O)(=O)c2ccc(C)cc2)cc1Cl,133.7
Cc1ccc(S(=O)(=O)N2C=Cc3ccccc3C2C#N)cc1 (stereo unspecified),103.2
O=C(O)c1ccc(OC2CSC2)cc1,100.0
Cc1ccc(CSc2ncnc3sc(C)c(C)c23)cc1,105.7
N#Cc1c(N)c(C#N)c(=S)n(CC2CCCO2)c1N (stereo unspecified),101.4
C=CCN1C(=O)C2C3C=CC(C3)C2C1=O (stereo unspecified),100.3
CNS(=O)(=O)c1cc(-c2nnc(Nc3ccc4c(c3)OCO4)c3ccccc23)ccc1C,99.9
CN1N=C2c3ccccc3CCC2C1c1ccc(C#N)cc1 (stereo unspecified),100.1
O=C(Nc1ccccc1)N1CCn2c1nc1ccccc12,83.7
NN(Cc1ccccc1)c1ccccc1,98.3
CCN(CC)S(=O)(=O)c1cccc(C(=O)N2CCc3ccccc3C2)c1,106.2
Cc1ccccc1-n1ccc(=O)[nH]c1=O,92.3
CCc1nnc(NC(=O)c2ccc(N3C(=O)C4C5C=CC(C5)C4C3=O)cc2)s1 (stereo unspecified),100.1
c1cncc(Nc2nc(-c3cccs3)cs2)c1,88.9
O=S(=O)(NC1CCCCCC1)c1ccc(F)c(F)c1,93.3
Cc1cccc(NC(=O)c2ccc(Br)o2)c1,101.7
CCCC(=O)NCc1nc2ccccc2n1C(C)c1ccccc1 (stereo unspecified),100.0
Cc1cccc(NC(=O)CCCOc2ccc(Cl)cc2Cl)n1,100.8
O=S(=O)(n1nccc1-c1sccc1Cl)C(F)(F)F,103.5
Cc1ccsc1C(=O)OCC(=O)NCc1ccccc1,99.8
CC1(C)CC(=O)C2=C(C1)OC(N)=C(C(=O)OC(C)(C)C)C21C(=O)Nc2ccccc21 (stereo unspecified),99.4

# Not a retest: entries from further up.
SMILES,Vaccinia pol inh
CC(=O)Nc1sc2c(c1C(c1ccccn1)N1CCN(C)CC1)CCCC2 (stereo unspecified),91.5
Cc1ccc(N(C(=O)c2ccccc2C)S(=O)(=O)c2ccc(Cl)cc2)cc1,100.2
Cc1cc(C)c2c(=O)[nH]c(SCC(=O)N(C)C)nc2n1,103.0
CCc1c(C)c2cc3c(C)coc3cc2oc1=O,98.8

# (next part)
SMILES,Vaccinia pol inh
CCN(CC)Cn1cnc2c(SC)ncnc21,110.0
Cc1csc(Nc2ccccc2)n1,101.1
FC(F)(F)c1cc(-c2ccccc2)nc(N2CCN(c3ccccc3)CC2)n1,101.5
Cc1ccc(C(=O)n2c(=S)sc3ccccc32)cc1,102.1
O=C(O)CP(=O)(O)c1ccc(Cl)cc1,100.6
Fc1cccc(CNCC2CCCO2)c1 (stereo unspecified),97.5
CC1Cc2cc(OCC(=O)O)ccc2C1=O (stereo unspecified),100.5
COc1ccc(/C=C2/SC(=O)N(CCC(=O)O)C2=O)cc1,99.4
C=CCN1C(=O)/C(=C/c2cc(C)n(-c3ccc(CC)cc3)c2C)SC1=S,99.5
CCCOC1(NC(=O)c2ccc(C)cc2)C(C)=CC(=O)C=C1C,102.6
Cc1ccc(Cc2cnc(NC(=O)C(c3ccccc3)c3ccccc3)s2)cc1,99.1
Cc1cc(C)c2c(c1NC(=O)N1CCCC1)CC(C)(C)C2=O,104.0
COc1cc(C)nn1-c1ccc(Cl)cc1,96.7
CCN(C(=O)C1Cc2ccccc2CN1S(=O)(=O)c1ccc(F)cc1)c1ccccc1 (stereo unspecified),88.3
Cn1c2ccc(Br)cc2c2nnc(SCc3ccc4nonc4c3)nc21,100.4
COC[C@@H]1N=C(C)OC1c1ccccc1 (stereo partly specified),91.0
Cc1c(N=C2SC(CC(=O)O)C(=O)N2/N=C/c2ccccc2O)c(=O)n(-c2ccccc2)n1C (stereo unspecified),100.0
CC(=O)ON1C(=O)c2cccc3c(Br)ccc(c23)C1=O,95.7
CC1=NN(C(=S)c2ccc(C)cc2)C(C)(O)C1CC(C)C (stereo unspecified),99.2
C/C(=N\O)c1cc(-c2ccccc2)c(C(F)(F)F)s1,95.8
O=c1cc(-c2ccccc2)oc2cc(Cl)cc(Cl)c12,102.0
C=CC[C@H]1Cc2ccccc2[C@H](CC=C)N1,99.9
COC(=O)CC1SCCNC1=O (stereo unspecified),99.3
CSc1cccc(NC(=S)NCc2cccn2C)c1,101.8

# Screening results as filed in PubChem.
